Screening results as filed in PubChem.
AID923: qHTS Assay for Allosteric/Competitive Inhibitors of Caspase-1: Spectroscopic Profiling in AFC Spectral Region; compound fluorescence, AFC spectral region (405/520 nm); almost no hit is shown here; Potency, µM (highest dose often 57.5 µM), without a hit: top-dose fluorescence increase, actives largely listed as activators; hit rate 1.1% among 75,000; AID 923, 2007; active means well fitted activation curve with a large enough effect; inconclusive means small, poorly fitted or top-dose-only effect;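 further: potency means the concentration at half of the fitted maximal effect; 0% is about no effect; scaled to a free AFC standard on each plate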
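Baseline compound fluorescence (AFC region, 405 nm ex/520 nm em) taken from the intercept of kinetic reads with 50 nM caspase-1 and 5 uM Ac-WEHD-AFC; normalized to an on-plate AFC standard curve; compounds titrated up to 57 uM.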
Resorufin autofl: resorufin region autofluorescence | Compound fluorescence, resorufin region 547/598 nm, buffer; hits give high values | max dye-equivalent concentration, M | hit rate 0.04% among 59,000 | AID 588; active = above 10 nM dye equivalent; inconclusive = 1 to 10 nM; inactive = 1 nM or less; a few of its hits are not listed in these tables; further: highest value over a series up to 38 µM
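Intrinsic fluorescence profiled in the resorufin window (ex 547 nm, em 598 nm) after 15 min at room temperature in pH 8.0 Tris buffer (100 mM); responses normalized against a six-point resorufin standard series as dye-equivalent concentration.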
A488 fluor: A488 region autofluorescence | max dye equivalency, M | compound autofluorescence, A488 spectral region, dye equivalency; hits give high values | AID 591 | hit rate 0.1% among 59,000; active = above 10 nM dye equivalent; inconclusive = 1 to 10 nM; inactive = 1 nM or less; about half of its hits are not listed in these tables;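 further: highest value over a series up to 38 µM; compound alone in buffer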
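Read-out: relative fluorescence at 480/540 nm, expressed as Alexa 488 dye-equivalent concentration from a six-point A488 standard included per plate. Conditions: 100 mM Tris, pH 8.0; 15 min incubation, room temperature.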
A647 autofl: compound fluoresces in the A647 spectral region; Compound fluorescence, A647 channel (570/671 nm), Tris buffer; max dye-equivalent concentration, M; 59,000 tested, under 10 active; AID 592; active means above 1 µM dye equivalent; inconclusive means 0.1 to 1 µM; inactive means 0.1 µM or less;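 further: values scaled relative to a standard on each plate; highest value over a series up to 38 µM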
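Each compound's intrinsic fluorescence at 570 nm excitation and 671 nm emission is measured across its concentration series in 100 mM Tris, pH 8.0, after 15 min at room temperature, and reported relative to an A647 curve.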
TSHR ag: agonists of human thyroid stimulating hormone receptor; AID 926; HEK293-CNG-TSHR cells (CNG channel as cAMP sensor), membrane potential dye, cAMP; hit rate 0.48% among 73,000; Potency, µM (titrated, usually from 57.1 µM), for inactives: top-dose activation, actives largely listed as activators; active = well fitted activation curve of enough size with the parental cells flat; inconclusive = any curve in the parental cells; inactive = parental cells flat and receptor cells flat or falling; further: potency means the concentration at half of the fitted maximal effect; % of control where 0% means no effect; weak receptor curves with flat parental cells got no call and are not listed
Target sequence (P16473 whole entry, looked up): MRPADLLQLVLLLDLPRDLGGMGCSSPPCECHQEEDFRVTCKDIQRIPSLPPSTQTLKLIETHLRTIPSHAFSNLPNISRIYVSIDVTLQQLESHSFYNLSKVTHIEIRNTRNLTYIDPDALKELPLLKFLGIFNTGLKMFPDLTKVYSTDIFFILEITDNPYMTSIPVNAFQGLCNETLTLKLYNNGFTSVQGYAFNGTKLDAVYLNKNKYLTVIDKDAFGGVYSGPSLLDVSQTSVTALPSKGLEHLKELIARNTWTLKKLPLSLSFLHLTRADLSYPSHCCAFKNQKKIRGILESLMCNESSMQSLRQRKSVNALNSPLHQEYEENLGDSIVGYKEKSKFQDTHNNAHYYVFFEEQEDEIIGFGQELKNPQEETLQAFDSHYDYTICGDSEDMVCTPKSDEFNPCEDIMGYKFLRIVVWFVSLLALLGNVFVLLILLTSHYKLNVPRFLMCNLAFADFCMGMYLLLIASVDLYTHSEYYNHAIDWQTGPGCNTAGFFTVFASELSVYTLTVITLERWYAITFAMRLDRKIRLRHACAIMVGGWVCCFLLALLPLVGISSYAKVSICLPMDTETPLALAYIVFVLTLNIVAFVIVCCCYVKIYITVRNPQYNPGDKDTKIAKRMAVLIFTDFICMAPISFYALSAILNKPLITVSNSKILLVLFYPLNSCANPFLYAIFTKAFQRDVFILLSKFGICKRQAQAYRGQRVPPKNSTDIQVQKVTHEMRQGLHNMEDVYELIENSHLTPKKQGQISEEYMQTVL
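HEK 293 cells stably expressing TSHR and a cAMP-gated CNG channel; parental CNG-only cells as counterscreen. Cells preloaded 60 min with membrane potential dye plus 100 uM RO 20-1724, then compound 30 min; fluorescence read at 590 nm.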
* marks the source's active call; other numbers are inactive results; i = inactive; ? = inconclusive; . = not tested or not shown; [ ] = dose if it differs, or a comment. An excerpt, so the mix of outcomes need not match the whole.

Under each structure: AID923	Resorufin autofl	A488 fluor	A647 autofl	TSHR ag
- O=C(C1COc2ccccc2O1)N1CCOCC1 (stereo not drawn)
 : 1.4%	.	.	.	-2.7%
- CSc1cccc(NC(=O)CSc2nc3ccccc3o2)c1
 : 0.4%	i	i	4.22e-08	?
- CCn1c(SCC(=O)NCc2cccs2)nc2c1c(=O)n(C)c(=O)n2C
 : -1.4%	i	i	4.1e-09	-2.3%
- CCOc1ccc(C2=Nn3c(nnc3-c3ccccn3)SC2)cc1
 : .	i	i	3.01e-08	.
- COc1ccc(CNc2nc3c(c(C(F)(F)F)n2)CCCCC3)cc1
 : 0.9%	i	i	1e-09	?
- COC(=O)C(C)Sc1nc2c([nH]c3ccccc32)c(=O)n1C (stereo not drawn)
 : -1.0%	i	i	1e-09	-2.6%[11.4 µM]
- Cn1c(C(O)c2ccccc2)nc(Cl)c1Cl (stereo not drawn)
 : -0.6%	.	.	.	-3.5%
- O=C(COc1ccccc1)Nc1ccccc1N1CCN(c2ccc(F)cc2)CC1
 : 9.0%	i	i	1e-09	?
- CCC(C)n1c(SC(C)C#N)nc2ccccc2c1=O (stereo not drawn)
 : -1.0%	i	i	3.2e-09	.
- O=C(O)CCC(C(=O)O)n1c(O)c(C2=c3ccccc3=NC2=O)sc1=S (stereo not drawn)
 : 2.0%	.	.	.	-1.6%
- Cc1[nH]nc2c1C1(CCN(Cc3ccccc3)CC1)C(C#N)=C(N)O2
 : 12.4%	i	i	1e-09	10.9%
- CCCn1c(-c2ccccc2)nc2c(=O)n(C)c(=O)[nH]c21
 : -0.2%	.	.	.	2.7%
- COc1cccc(-c2nc3ccc(O)cc3c(=O)o2)c1
 : 1.4%	i	i	1e-09	-1.5%
- Cc1ccc(C(=O)NCc2ccc3c(c2)OCO3)cc1N1CCCC1=O
 : 0.3%	.	.	.	6.5%
- Cc1cc(C)nc(NC2=NCC(=O)N2CCc2c[nH]c3ccccc23)n1
 : -0.2%	i	i	3.2e-09	-11.0%
- Cc1cc(/C(O)=C2\C(=O)C(=O)N(CCN(C)C)C2c2ccncc2)ccc1OCc1ccccc1 (stereo not drawn)
 : .	i	i	2.79e-08	.
- COc1cc2nc(NCC3CCCO3)n3nc(-c4cccnc4)nc3c2cc1OC (stereo not drawn)
 : -0.1%	i	i	1.68e-08	.
- O=C(Nc1cccnc1)c1cc(-c2ccco2)on1
 : -1.1%	i	i	1.43e-08	0.6%
- C1OCOCO1
 : -3.4%	.	.	.	?
- C=CCN(C(=O)Nc1ccccc1)C1CC(=O)N(c2ccc(OC)cc2)C1=O (stereo not drawn)
 : 0.7%	i	i	1.5e-08	1.5%
- NC(=O)C1CCN(S(=O)(=O)c2cccc(S(=O)(=O)N3CCCCC3)c2)CC1
 : 8.6%	i	i	1e-09	-2.3%
- Fc1ccccc1Cn1nnc2c(NCCc3ccccn3)ncnc21
 : 1.8%	i	i	1.5e-08	-0.5%
- CC(=O)c1ccc2c3c(cccc13)C(=O)N(c1c(C)nn(C)c1C)C2=O
 : 0.5%	i	i	3e-09	-5.4%
- COc1ccc(NC(=O)c2cc(CN3C(=O)c4ccccc4C3=O)ccc2OC)cn1
 : 0.4%	i	i	1.41e-08	.
- CCCc1nc(SCC(=O)Nc2cc(C)on2)c2c(=O)n(C)c(=O)n(C)c2n1
 : -6.2%	.	.	.	?
- CCOC(=O)c1oc2cccc(OCC(O)CNC(C)C)c2c1C (stereo not drawn)
 : -1.1%	i	i	3.03e-08	-4.7%
- COc1ccccc1N1C(=O)C2C3C=CC(C3)C2(C)C1=O (stereo not drawn)
 : -0.4%	.	.	.	3.8%
- Cc1ccc2occ(C(=O)c3ccco3)c(=O)c2c1
 : 1.1%	.	.	.	?
- CCCc1cc(N2CCCC(C(=O)Nc3cc(Cl)ccc3OC)C2)n2ncnc2n1 (stereo not drawn)
 : -1.4%	i	i	1.21e-08	6.8%
- CC(C)C1N(C(=O)CN2CCCC2)CCN1S(=O)(=O)c1ccccc1 (stereo not drawn)
 : 4.3%	.	.	.	11.9%
- O=C(CN1CCCCC1)Nc1nnc(-c2ccccc2)s1
 : 0.1%	.	.	.	8.9%[11.4 µM]
- CC(C)C[C@H](N)CSSC[C@@H](N)CC(C)C
 : -0.4%	i	i	4.3e-08	?
- C[C@@H](C(=O)Nc1ccc2ccccc2c1)[C@H]1C[C@]1(C)[C@H](NC(=O)c1ccccc1)c1ccccc1
 : -0.6%	.	.	.	15.9%
- CC(=O)N1CCC2(CC1)CCN(c1ccncc1)CC2
 : 0.6%	i	i	1.25e-08	?
- O=C(/C=C\Nc1cccc(F)c1)c1ccc2c(c1)OCO2
 : 20.3%	.	.	.	26.5%[11.4 µM]
- N=c1c2c(n(Cc3ccc(F)cc3)c3c1CCC3)CCC2
 : 0.4%	.	.	.	21.2%
- CC(C)N1C(=O)CCC1C(=O)NC1CCCC1 (stereo not drawn)
 : 0.9%	i	i	1e-09	-4.7%
- Cc1nc(C)c(NC(=O)N2CCc3ccccc32)cc1NC(=O)N1CCc2ccccc21
 : -0.2%	i	i	2e-09	8.1%
- CN1CCN(c2nc(-c3ccccc3)nc3c2oc2ccccc23)CC1
 : -0.6%	i	i	2.3e-09	-70.2%[inhibitor]
- CNc1oc(Cc2cccc3ccccc23)nc1C#N
 : -0.2%	i	i	2.86e-08	-8.0%
- COC(=O)C1C(O)=C(C(C)=N)C(=O)CC1(C)C (stereo not drawn)
 : -0.9%	.	.	.	-0.4%
- CCCCN(C)Cc1c(C)[nH]c2c(Cl)cccc2c1=O
 : 0.6%	i	i	1e-09	10.1%
- COc1ccc(CCC(=O)Nc2nc3c(s2)CN(C)CC3)cc1OC
 : 1.9%	i	i	4.8e-09	0.7%
- COc1ccc(CCNC(=O)CCS(=O)(=O)c2ccc3c(c2)CCN3C(C)=O)cc1OC
 : -0.2%	i	i	1e-09	4.6%
- O=C(NCCN1CCOCC1)c1csc2c1CCCCC2
 : -0.7%	i	i	2.67e-08	3.5%[11.4 µM]
- O=C(Nc1nc(-c2ccccn2)cs1)c1ccc(S(=O)(=O)N2CCCCC2)cc1
 : 0.9%	i	i	1e-09	2.2%[11.4 µM]
- Cc1ccc(N2C(=O)CSC2c2cccnc2)cc1F (stereo not drawn)
 : 1.0%	i	i	1e-09	-4.8%
- CCc1cc(C=NC2CCCCC2)c(O)s1
 : -1.2%	i	i	2.83e-08	.
- CCOC(=O)c1nnn(-c2nonc2N)c1COc1ccccc1
 : 0.8%	.	.	.	?
- COc1cc(CC(=O)NCc2ccc3c(c2)OCO3)cc(OC)c1OC
 : -1.5%	i	i	1e-09	7.6%

(cont.)
Under each structure: AID923	Resorufin autofl	A488 fluor	A647 autofl	TSHR ag
- COc1ccccc1OCCn1c(=O)sc2ccccc21
 : 0.8%	i	i	2.72e-08	?
- CCOC(=O)Cc1csc(SCn2nnc3ccccc3c2=O)n1
 : 0.1%	i	i	1e-09	8.1%
- O=C(C1CCC(CNc2c(N3CCOCC3)c(=O)c2=O)CC1)N1CCN(c2ccccc2)CC1 (stereo not drawn)
 : -1.6%	.	.	.	-0.3%
- CCOc1cc(-c2nc(-c3ccc(OC)cc3)no2)cc(OCC)c1OCC
 : -1.5%	.	.	.	4.9%[11.4 µM]
- CC(=O)N1CCc2cc(S(=O)(=O)NC(CC(C)C)C(=O)N3CCc4ccccc4C3)ccc21 (stereo not drawn)
 : 1.0%	i	i	4.5e-08	7.8%
- COc1ccc(N2C(=O)CCC(C(=O)O)C2c2ccc(F)cc2)cc1 (stereo not drawn)
 : 1.0%	i	i	1e-09	-2.9%
- Cc1csc(NC(=O)CSc2nsc(SCC(=O)Nc3nc(C)cs3)c2C#N)n1
 : .	i	i	3.1e-09	.
- Cc1ccc(S(=O)(=O)N2CCN(c3nc(C)nc4sc(C)c(C)c34)CC2)cc1
 : -1.2%	i	i	4.64e-08	5.6%
- O=C(CCC1COc2ccccc2O1)Nc1ccc(Cl)cn1 (stereo not drawn)
 : -0.4%	i	i	4.4e-09	23.8%
- CCn1c(=O)c(C(=O)NCc2cccnc2)c(O)c2ccccc21
 : 0.0%	i	i	9.6e-09	26.0%
- CCC(=O)Nc1ccc(NC(=O)c2c(C)nc3ccccn23)cc1
 : -1.0%	i	i	1e-09	-0.3%
- CN(C)CCCn1cc(C2=C(c3c[nH]c4ccccc34)C(=O)NC2=O)c2ccccc21
 : 2.8%	.	.	.	?
- Cc1cc(=O)[nH]c(SCc2nc3ccccc3n2Cc2ccccc2)n1
 : 11.6%	i	i	2.4e-09	11.4%
- O=C(c1ccco1)N1CCN(C(=O)c2cc(-c3ccccn3)nc3ccccc23)CC1
 : -2.5%	i	i	2.72e-08	-1.3%
- CCCS(=O)(=O)N1CCN(c2ccccn2)CC1
 : 0.1%	i	i	1e-09	-5.2%
- CCCCOC(=O)C1[C@H]2C(=O)N(CCc3ccccc3)C[C@]23C=C[C@H]1O3 (stereo partly drawn)
 : 0.7%	i	i	3.66e-08	2.2%
- O=C(O)C1C2C=CC(O2)C1C(=O)NCCC1=CCCCC1 (stereo not drawn)
 : -0.5%	i	i	1.87e-08	5.5%
- c1ccc(-c2csc(Nc3nc(N4CCOCC4)nc(N4CCOCC4)n3)n2)cc1
 : 0.3%	.	.	.	?
- O=C(Nc1ccc(-c2nc3ccccc3o2)cc1)C1CCCO1 (stereo not drawn)
 : 0.9%	i	i	1e-09	-4.3%
- CCOC(=O)c1ccc(CSc2n[nH]c(C)n2)o1
 : -0.4%	.	.	.	0.1%
- COc1ccc(CCNC(=O)CSc2nnc(Cn3c(=O)sc4ccccc43)n2C)cc1OC
 : 1.4%	i	i	2.03e-08	7.1%
- CSCCC(Nc1nc2ccccc2s1)C(=O)O (stereo not drawn)
 : -0.7%	i	i	1e-09	7.6%
- COc1cccc2sc(N3CCN(c4nc5ccccc5s4)CC3)nc12
 : 0.1%	i	i	3.74e-08	?
- Cc1ccc(O)c(C(=O)c2cnc3c(c2)CN(CCC(C)C)C(=O)N3)c1
 : 2.0%	i	i	1e-09	3.7%[11.4 µM]
- Cc1cc(C)nc(NS(=O)(=O)c2ccc(-n3cccc3)cc2)n1
 : -1.8%	i	i	7.44e-08	5.3%
- O=C(Nc1ccc2c(c1)OCO2)C1CCN(Cc2cnn(-c3ccccc3)c2-n2cccc2)CC1
 : -0.5%	i	i	4.1e-09	16.6%
- CCN(Cc1ccccc1)S(=O)(=O)c1ccc(C(=O)Nc2nnc(C3CC3)o2)cc1
 : -2.2%	.	.	.	0.7%
- O=C(Cn1nc(-c2ccc(Cl)cc2)ccc1=O)NCC1CCCO1 (stereo not drawn)
 : 3.8%	.	.	.	3.4%
- Cc1ccc(-n2c(SCC(=O)N3CCCC3)nc3c(c2=O)SCC3)cc1
 : 0.0%	i	i	1.7e-09	2.7%
- CCSc1cnc(-c2ccccc2)n1CC
 : -0.9%	i	i	3.6e-09	4.0%
- Cc1cc(C(=O)NCCCN2CCCC2=O)cs1
 : 1.6%	i	i	1e-09	-8.1%
- O=S(=O)(c1cccc(-c2cn3cccnc3n2)c1)N1CCOCC1
 : -1.1%	i	i	2.21e-08	11.8%
- CCNc1ncc2nc(C)c(=O)n(Cc3cccc(OC)c3)c2n1
 : 11.6%	i	i	1e-09	3.2%
- CCC(=O)c1ccc(N2CCN(C(=O)Cc3ccccc3)CC2)c(F)c1
 : 0.1%	i	i	2.4e-09	3.2%
- O=S(=O)(c1ccccc1)N1CCC2(CCN(c3ccc(-c4ccccc4)cc3)CC2)CC1
 : 3.6%	i	i	5.2e-09	.
- CN(C)c1ccnc(-c2cccc(NS(C)(=O)=O)c2)n1
 : -4.1%	i	i	1e-09	11.0%
- CCN1CCc2nc(N)oc2CC1
 : -0.7%	i	i	8.5e-09	?
- COc1cc2[nH]c(=O)n(CCCCCC(=O)NCCCN3CCCC3=O)c(=O)c2cc1OC
 : -0.2%	i	i	2.4e-09	?
